Screens (PubChem)
Hsc70 ATP site = Hsc70 inhibitors, probe displacement, primary screen, biochemical, fluorescence polarization (AID 568) | Hsc70 fluorescence polarization, probe displacement; higher % means a stronger effect; strong numbers were not always called active | displacement, % at 20 µM; hits with a dose series show IC50 in µM | 83,000 tested, under 10 active;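 active = displacement above 50% without optical interference and an IC50 on retest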;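 note: ATPase domain with a fluorescein-tagged ATP probe; 0% = vehicle and 100% = excess ADP; read after one hour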
MT1-MMP promoter = inhibitors of MT1-MMP promoter transcription, cell-based, luciferase reporter, luminescence (AID 618); MT1-MMP promoter luciferase reporter cells, luminescence; calls from a first round at 10 µM; hits with a dose series show EC50 in µM; 87,000 tested, 0.62% active;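 active = over half of the reporter light lost at 10 µM or EC50 under 50 µM; inactive = the rest and hits that failed the dose series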;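 note: actives suppress MT1-MMP promoter-driven transcription so potencies describe inhibitors; HT1080 fibrosarcoma cells; overnight exposure; toxic or luciferase-blocking compounds were not removed from the actives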
WNV NS2B-NS3 inh = WNV NS2B-NS3 proteinase inhibition | 65,000 tested, 0.18% active | AID 577 | WNV NS2B-NS3 protease, fluorogenic substrate Ex360/Em465; hits give low values | z-score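 (tested at a level between 10 and 100 µM)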;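 active = z-score at -3 or under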;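 note: score is relative to mean and spread of the compound wells of a plate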
Target sequence (P06935 1371-1501 limits assumed): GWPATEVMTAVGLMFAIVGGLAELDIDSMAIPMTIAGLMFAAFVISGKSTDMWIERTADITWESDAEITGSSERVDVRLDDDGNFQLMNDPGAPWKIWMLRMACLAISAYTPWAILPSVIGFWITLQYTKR
Target sequence (P06935 1502-1679 limits assumed): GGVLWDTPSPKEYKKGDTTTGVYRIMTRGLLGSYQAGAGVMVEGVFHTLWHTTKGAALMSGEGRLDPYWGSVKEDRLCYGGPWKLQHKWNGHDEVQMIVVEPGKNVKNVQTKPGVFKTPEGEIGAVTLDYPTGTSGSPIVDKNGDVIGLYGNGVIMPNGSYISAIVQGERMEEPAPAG
* marks the source's active call; other numbers are inactive results; i = inactive; . = not tested or not shown; + = active, no number.

Every second line gives: WNV NS2B-NS3 inh	Hsc70 ATP site	MT1-MMP promoter
1) CCOc1ccccc1NC(=O)CCSc1nc2n[nH]c(C)c2c(=N)n1-c1ccccc1Cl
→ -0.45	-4.8%	i
2) CC(NC(=O)Cc1ccc(F)cc1)C(c1cccs1)N1CCN(C)CC1 (centres undefined)
→ -1.34	0.7%	i
3) CC(=NCc1ccco1)c1c(C)[nH]n(-c2nc3ccccc3s2)c1=O
→ 0.84	-13.0%	i
4) COC(=O)CSc1nc(-c2ccc(C)cc2)c2c(c1C#N)CCCC2
→ .	-0.1%	i
5) O=c1[nH]c(CN2CCN(c3ccccc3)CC2)nc2ccccc12
→ -0.01	-5.9%	i
6) CSc1nc(C)c2cc(C)oc2n1
→ -0.25	1.4%	i
7) CCOC(=O)CC(NC(=O)c1cccs1)c1ccc(OCC)cc1 (centres undefined)
→ .	-1.1%	i
8) COc1cc(-c2cccs2)cc(=O)c2c(C)oc(C)c12
→ 0.41	-5.2%	i
9) CCCCCCCCCC(=O)N/N=C(\C)c1cccnc1
→ .	9.5%	i
10) O=C(Cn1cnnn1)Nc1ccccc1Cc1ccccc1
→ 1.56	3.9%	i
11) CC1(C)CC(n2c(=S)[nH]c3ccccc3c2=O)CCO1 (centres undefined)
→ -1.19	-1.0%	i
12) CCCCN(CCCNC(=O)C1CCN(S(=O)(=O)CC)CC1)c1ccccc1
→ 0.28	-1.0%	i
13) CSc1ccc(S(=O)(=O)NCCOc2ccccc2C)cc1
→ 1.25	-1.2%	i
14) Cn1c(=O)c2c(nc(SCC(=O)OCc3ccccc3)n2C)n(C)c1=O
→ 0.06	4.8%	i
15) COc1cc2c(cc1NC(=O)CN1CCN(S(=O)(=O)c3ccc(F)cc3)CC1)oc1ccccc12
→ -0.05	0.5%	i
16) CCn1ccnc1C(O)c1ccccc1OC (centres undefined)
→ .	6.1%	i
17) CC(=O)c1ccc(NS(=O)(=O)c2ccccc2)cc1
→ 0.5	0.2%	i
18) Cc1ccc(NC(=O)c2ccccc2)s1
→ 1.04	2.4%	+
19) Cc1ccc(NC(=S)NCC2CCCO2)cc1C (centres undefined)
→ .	3.1%	i
20) Clc1cccc(Cl)c1COc1ccccn1
→ 0.79	-2.7%	i
21) CCOCCCNC(=O)CN1C(=O)CSc2cc(S(=O)(=O)N3CCCCCC3)ccc21
→ -0.18	-0.9%	i
22) CCCn1nnnc1SCC(=O)Nc1nnc(CC)s1
→ 0.38	3.1%	i
23) O=C(O)Cc1ccc(O)c(F)c1
→ .	-1.9%	i
24) CCN1CCCC1CNC(=O)C1CCCN(S(=O)(=O)c2cccc3nsnc23)C1 (centres undefined)
→ -0.73	1.6%	i
25) O=c1cc(Cl)c(-c2ccccc2)n[nH]1
→ .	1.8%	i
26) COc1ccc(N2C(=O)CC(Sc3nc(C)cc(C)c3C#N)C2=O)cc1 (centres undefined)
→ .	4.2%	i
27) COc1ccc(Cc2nnc(NC(=O)c3cccs3)s2)cc1
→ 0.08	-2.6%	i
28) Cc1cc(NC(=O)COC(=O)C2COc3ccccc3O2)no1 (centres undefined)
→ -0.27	0.1%	i
29) CCOc1ccc(-c2cc(CCCC(=O)Nc3cc(OC)ccc3OC)no2)cc1
→ 0.06	-0.2%	3.5µM*
30) CCOC(=O)CSc1ccc(S(=O)(=O)N(C)C2CCCCC2)cc1[N+](=O)[O-]
→ .	1.6%	i

Of the compounds above, these have a furan ring, fused or not:
Every second line gives: WNV NS2B-NS3 inh	Hsc70 ATP site	MT1-MMP promoter
3) CC(=NCc1ccco1)c1c(C)[nH]n(-c2nc3ccccc3s2)c1=O
→ 0.84	-13.0%	i
6) CSc1nc(C)c2cc(C)oc2n1
→ -0.25	1.4%	i
8) COc1cc(-c2cccs2)cc(=O)c2c(C)oc(C)c12
→ 0.41	-5.2%	i
15) COc1cc2c(cc1NC(=O)CN1CCN(S(=O)(=O)c3ccc(F)cc3)CC1)oc1ccccc12
→ -0.05	0.5%	i

Copied from above, entries 25 to 30
Every second line gives: WNV NS2B-NS3 inh	Hsc70 ATP site	MT1-MMP promoter
25) O=c1cc(Cl)c(-c2ccccc2)n[nH]1
→ .	1.8%	i
26) COc1ccc(N2C(=O)CC(Sc3nc(C)cc(C)c3C#N)C2=O)cc1 (centres undefined)
→ .	4.2%	i
27) COc1ccc(Cc2nnc(NC(=O)c3cccs3)s2)cc1
→ 0.08	-2.6%	i
28) Cc1cc(NC(=O)COC(=O)C2COc3ccccc3O2)no1 (centres undefined)
→ -0.27	0.1%	i
29) CCOc1ccc(-c2cc(CCCC(=O)Nc3cc(OC)ccc3OC)no2)cc1
→ 0.06	-0.2%	3.5µM*
30) CCOC(=O)CSc1ccc(S(=O)(=O)N(C)C2CCCCC2)cc1[N+](=O)[O-]
→ .	1.6%	i

Going on with the list:
Every second line gives: WNV NS2B-NS3 inh	Hsc70 ATP site	MT1-MMP promoter
31) O=C(Cn1cnc2ccccc2c1=O)NCc1ccco1
→ -0.92	0.1%	i
32) N#Cc1cc(C(=O)c2cc(Br)ccc2O)cn(C2CCCCC2)c1=O
→ .	0.8%	i
33) CCCCn1c2nc3ccccc3nc2c2c(=O)n(C(C)CC)cnc21 (centres undefined)
→ -0.29	-8.6%	i
34) O=C(O)C1CCCCC1C(=O)Nc1nc(-c2cccs2)cs1 (centres undefined)
→ 0.92	7.8%	i
35) COc1ccc(NC(=O)N2CCCC2C(=O)Nc2ccccc2)cc1 (centres undefined)
→ .	0.7%	i
36) CC(C)N1CC2(c3ccccc3)CN(C(C)C)CC(c3ccccc3)(C1)C2=O
→ .	3.2%	i
37) N#CC1=C(SCC(=O)Nc2ccccc2)NC(=O)CC1c1ccco1 (centres undefined)
→ .	7.8%	i
38) CC(=O)Nc1ccc(S(=O)(=O)NC(CC(=O)NCCCN2CCOCC2)C(C)C)cc1 (centres undefined)
→ 1.08	-4.7%	i
39) O=C1NC(c2ccccc2)(C(F)(F)F)SC2=NCCCN12 (centres undefined)
→ 0.49	4.8%	i
40) N/C(=N\OS(=O)(=O)c1ccc2ccccc2c1)c1ccncc1
→ .	-9.7%	i
41) CCc1ccc(-c2nc(CN3CCC(C(=O)N4CCN(c5ccccn5)CC4)CC3)c(C)o2)cc1
→ 1.73	6.0%	i
42) Cc1csc(NC(=O)C(CC(C)C)NS(=O)(=O)c2ccc3c(c2)oc(=O)n3C)n1 (centres undefined)
→ -0.67	1.0%	i
43) COCCn1c(SCC(=O)NCc2ccccc2)nnc1-c1ccco1
→ .	-0.2%	i
44) CC(C)CNC(=O)c1ccc(COc2ccc(Cl)cc2Cl)o1
→ .	-6.0%	i
45) O=C(CCn1c(=S)[nH]c2cc3c(cc2c1=O)OCO3)N1CCc2ccccc2C1
→ .	3.9%	i
46) CCOC(=O)N1CCC(C(N)=O)CC1
→ -0.17	0.6%	i
47) COC(=O)Cc1c[nH]c2cccc(OCC(O)CN(Cc3ccc([N+](=O)[O-])cc3)C(C)(C)C)c12 (centres undefined)
→ .	3.4%	i
48) [N-]=[N+]=CC(=O)C(Cc1ccccc1)N1C(=O)c2ccccc2C1=O (centres undefined)
→ -0.33	129.2%	i
49) CC1=C(C(=O)OC(C)C)C(c2ccsc2)NC(=O)N1C (centres undefined)
→ .	3.0%	i
50) CCOc1cccc(-n2nnnc2-c2ccc(OC)cc2)c1
→ 0.56	3.7%	i
51) O=C(Nc1ccc(Cl)cc1)OCCn1nnnc1C(c1ccccc1)N1CCOCC1 (centres undefined)
→ 0.17	-6.7%	i
52) Nc1nc(CN2CCN(c3ccccc3F)CC2)nc(Nc2ccccc2)n1
→ 0.54	-5.6%	i
53) COc1ccc(C(=O)c2cnc3cc4c(cc3c2C)OCO4)cc1
→ .	-1.4%	i
54) CC1(C)CC2CC(C)(CN2S(=O)(=O)c2ccc(N)cc2)C1 (centres undefined)
→ 1.16	-0.7%	i
55) COC(=O)c1ccc(OCC(=O)c2ccccc2OC)cc1
→ .	2.4%	i
56) O=C(C(NS(=O)(=O)c1cccc2nsnc12)c1ccccc1)N1CCN(c2ccccn2)CC1 (centres undefined)
→ 0.35	-4.7%	i
57) Cn1c(SC/C=C/c2ccccc2)nnc1-c1cccs1
→ -0.45	3.9%	i
58) O=C(CSc1nnc(CNc2ccccc2)o1)N1CCc2ccccc21
→ -1.13	-2.6%	i
59) CN1CCc2c(sc(/N=C/c3cccs3)c2C(N)=O)C1
→ -1.14	2.1%	i
60) CC1=C(C(N)=O)C(c2cccs2)n2nc(-c3cccc(C)c3)nc2N1 (centres undefined)
→ 0.2	-2.0%	i
61) CCOC(=O)C(C)Sc1ncnc2nc[nH]c12 (centres undefined)
→ .	-3.4%	i
62) Cc1onc(-c2c(F)cccc2Cl)c1C(=O)N1CCN(S(C)(=O)=O)CC1
→ 0.49	2.0%	i
63) CCOn1c(-n2nc(C)cc2C)nc2ccccc2c1=O
→ .	4.1%	i
64) Cc1ccc(-c2cc(C(=O)NCc3ccco3)c3ccccc3n2)o1
→ 0.93	-2.4%	i
65) COc1ccc(N2CCN(C(=O)CCc3ccc(S(=O)(=O)NC(C)C)cc3)CC2)cc1
→ .	5.0%	i
66) COc1ccc(C(CNC(=O)c2ccc(S(=O)(=O)N3CCOCC3)cc2)N2CCCCC2)cc1 (centres undefined)
→ 0.78	1.9%	i
67) CCOC(=O)N1CCN(Cc2nc(N)nc(Nc3ccccc3C)n2)CC1
→ .	3.5%	i
68) COC(=O)C(Cc1ccccc1)NC(=O)CSc1nc(C)cc(=O)[nH]1 (centres undefined)
→ 2.72	5.7%	i
69) COc1cccc(NS(=O)(=O)c2ccc3[nH]cc(C(=O)NC4CC4)c(=O)c3c2)c1
→ 0.12	-1.1%	i
70) O=C1CC(c2ccco2)CC2=C1C(c1ccccc1)n1nc(C(F)(F)F)nc1N2 (centres undefined)
→ 0.41	0.3%	i
71) O=C(CSc1nccc2ccccc12)N1CCN(Cc2ccc3c(c2)OCO3)CC1
→ -1.06	2.6%	i
72) O=C(c1ccc(N2C(=O)CCC2=O)cc1)N1CCOCC1
→ -0.48	0.4%	i
73) COc1cc(NS(=O)(=O)c2ccc(OC)c(C)c2C)c(OC)cc1Cl
→ 0.25	4.3%	i
74) Cc1cc(C(=O)N2CCN(c3ncccn3)CC2)sc1-c1ccccc1
→ -1.02	7.2%	i
75) Nc1ccc(N=Nc2ccccc2)c(N)n1
→ -1.3	-1.9%	i
76) CN(Cc1ccco1)C(=O)Cn1c(=O)oc2cc(S(=O)(=O)NCc3ccccc3)ccc21
→ -0.15	-1.8%	i
77) Cc1nn(Cc2ccc(C(=O)N3c4ccc(F)cc4CCC3C)o2)c(C)c1Br (centres undefined)
→ -1.1	0.5%	i
78) Cc1c(Cl)cccc1NC(=O)CSCC(N)=O
→ -0.67	3.8%	i
79) CC(=O)N1CCN(C(=O)CCc2nc3sc4c(c3c(=O)[nH]2)CCCC4)CC1
→ 0.12	-1.6%	i
80) O=C1N(CC(=O)N2CCc3ccccc32)CCN1Cc1ccc(Cl)cc1
→ 0.04	0.9%	i
81) Cc1cc(N2C(=O)c3ccc(C(=O)NCc4ccccc4)cc3C2=O)no1
→ -0.74	0.1%	i
82) Cn1c(=O)c2c(nc(SCCNS(=O)(=O)c3ccccc3)n2C)n(C)c1=O
→ -0.74	-2.3%	i
83) CCCCN(CCCC)S(=O)(=O)c1ccc(NC(=O)CN2CCOCC2)cc1
→ .	-3.8%	i
84) O=C(NC1CCCCCCC1)c1ccc2c(c1)OCO2
→ 1.76	5.9%	i
85) COc1ccc(N(C)C(=O)c2ccc3snnc3c2)cc1
→ -0.49	2.0%	i
86) CCOC(=O)C1=C(C)NC2=C(C(=O)CC(C)(C)C2)C1c1ccc(N(C)C)cc1 (centres undefined)
→ 0.08	-0.4%	i
87) Cc1ccc(S(=O)(=O)NC2OC(=O)C(Cl)=C2Cl)cc1 (centres undefined)
→ -0.52	-10.3%	i
88) Cc1cc(NC(=O)CSc2ncn(-c3ccccc3)n2)no1
→ 0.99	0.8%	i
89) CSc1nc2n(n1)C(c1ccccn1)C1=C(CC(C)(C)CC1=O)N2 (centres undefined)
→ .	0.2%	i
90) Cc1ccc(NC2=C(Cl)C(=O)OC2OC(=O)c2ccco2)c(C)c1 (centres undefined)
→ .	6.1%	i

Next records:
Every second line gives: WNV NS2B-NS3 inh	Hsc70 ATP site	MT1-MMP promoter
91) Cc1nn(CCC#N)c2nc(-c3ccccc3)cc(C(F)(F)F)c12
→ .	4.5%	i
92) Cc1ccc(CN2CC34C=CC(O3)C(C(=O)NCc3ccc5c(c3)OCO5)C4C2=O)cc1 (centres undefined)
→ -0.98	-14.4%	i
93) O=C(NCc1ccc2c(c1)OCO2)c1cc(-c2ccc(Cl)cc2Cl)on1
→ .	-4.2%	i
94) CCCS(=O)(=O)c1c(S(=O)(=O)CCC)c2c(C)cccn2c1C(N)=O
→ .	-2.6%	i
95) Cc1cc2ccccc2cc(C)c1=O
→ 0.64	2.7%	i
96) CC1Cc2ccccc2N1c1ncnc2c1nnn2Cc1ccccc1Cl (centres undefined)
→ .	-4.2%	i
97) Cc1nnc(SCC(=O)NCc2ccco2)n1-c1ccc(F)cc1
→ .	5.3%	i
98) COc1ccc(/C=N/c2nc3ccccc3n2CCN2CCCCC2)cc1OC
→ .	1.7%	i
99) Cn1ccnc1C(O)c1cc(C(C)(C)C)c(O)c(C(C)(C)C)c1 (centres undefined)
→ -0.58	-2.4%	i
100) C=CCn1c(COc2ccccc2)nnc1SCC(=O)O
→ 1.37	4.1%	i
101) Cc1nn(C(=O)c2ccoc2C)c(N)c1-c1ccccc1
→ -0.09	1.0%	i

Not a hit list; about 0.87% have a hit in one of these screens.
